# Screening results deposited in PubChem by National Center for Advancing Translational Sciences (NCATS).
# Rango release inh: inhibition of RanGTP-driven Rango-importin beta dissociation; AID 540253; Biochemical FRET Rango-importin beta, RanGTP-induced dissociation; actives 0.071% (n = 340,000); Potency, µM (series often up to 46.1 µM), for the others: at the highest dose activity change, negative = inhibition; O95149+P62826; active means falling FRET ratio curve, often poorly fitted, with flat reads before Ran was added; inconclusive means other falling curves, or compound fluorescence or quenching; inactive means flat or rising ratio curve;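 further: potency means the concentration at half of the fitted maximal effect; % of control where 0% means no effect; nearly all actives have a fitted effect of over 45% in size; -100% = wells without RanGTP and RCC1; the record marks most hits as doubtful in a second field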
#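 Rango (0.1 uM)–importin beta (0.25 uM) complex; RanGTP-RCC1 trigger; 45 min RT; CFP/YFP FRET read.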
# miR-21 FLuc: miR-21 reporter, rising signal; 340,000 tested, under 10 active; Potency, µM (series often up to 38.3 µM), for inactives: top-dose reporter change, positive = more light; HeLa miR-21 FLuc reporter, luciferase, 48 h; AID 2288; active = well fitted rising curve with a large enough effect; inconclusive = small, poorly fitted or top-dose-only effect; inactive = no such curve, though single readings can be large or run the other way;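 further: % of control where 0% means no effect; miR-21 action dims this reporter so a rising signal means less miR-21 action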
#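 HeLa cells stably expressing CMV-driven firefly luciferase with a downstream miR-21 binding sequence, endogenously expressing miR-21, were treated with titrations (up to about 40uM final) for 48 hours at 37 degree Celsius. Luciferase luminescence was read after lysis.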
# GLA inh pH 4.5: alpha-galactosidase A (human) inhibition, pH 4.5; purified enzyme, 4-MU-alpha-Gal fluorescence, pH 4.5; activity change, negative = inhibition, % at 105 µM; P06280; AID 1467; 230,000 tested, under 10 active; inconclusive = small, poorly fitted or top-dose-only inhibition, or a rising curve; inactive = flat fitted curve, though single readings scatter; no compound was filed as active;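 further: 0% = full activity with enzyme and -100% = basal without enzyme; dose as in the result columns while the protocol names 77 µM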
# Rango-impB inh: inhibitors of Rango-importin beta complex formation. AID 540263. Potency, µM (titrated, usually from 92.2 µM), for the others: at the top dose inhibition of complex formation. Rango CFP/YFP FRET sensor + importin beta, 45 min. Q14974. actives 0.031% (n = 340,000); active = rising FRET ratio curve, often small or poorly fitted; inconclusive = mostly compound fluorescence or quenching in the first reads; inactive = flat curves in all reads;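 further: potency means the concentration at half of the fitted maximal effect; 0% = DMSO wells and 100% = buffer wells lacking importin beta; nearly all actives have a fitted effect of over 15% in size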
# Target sequence (Q14974 whole entry, looked up): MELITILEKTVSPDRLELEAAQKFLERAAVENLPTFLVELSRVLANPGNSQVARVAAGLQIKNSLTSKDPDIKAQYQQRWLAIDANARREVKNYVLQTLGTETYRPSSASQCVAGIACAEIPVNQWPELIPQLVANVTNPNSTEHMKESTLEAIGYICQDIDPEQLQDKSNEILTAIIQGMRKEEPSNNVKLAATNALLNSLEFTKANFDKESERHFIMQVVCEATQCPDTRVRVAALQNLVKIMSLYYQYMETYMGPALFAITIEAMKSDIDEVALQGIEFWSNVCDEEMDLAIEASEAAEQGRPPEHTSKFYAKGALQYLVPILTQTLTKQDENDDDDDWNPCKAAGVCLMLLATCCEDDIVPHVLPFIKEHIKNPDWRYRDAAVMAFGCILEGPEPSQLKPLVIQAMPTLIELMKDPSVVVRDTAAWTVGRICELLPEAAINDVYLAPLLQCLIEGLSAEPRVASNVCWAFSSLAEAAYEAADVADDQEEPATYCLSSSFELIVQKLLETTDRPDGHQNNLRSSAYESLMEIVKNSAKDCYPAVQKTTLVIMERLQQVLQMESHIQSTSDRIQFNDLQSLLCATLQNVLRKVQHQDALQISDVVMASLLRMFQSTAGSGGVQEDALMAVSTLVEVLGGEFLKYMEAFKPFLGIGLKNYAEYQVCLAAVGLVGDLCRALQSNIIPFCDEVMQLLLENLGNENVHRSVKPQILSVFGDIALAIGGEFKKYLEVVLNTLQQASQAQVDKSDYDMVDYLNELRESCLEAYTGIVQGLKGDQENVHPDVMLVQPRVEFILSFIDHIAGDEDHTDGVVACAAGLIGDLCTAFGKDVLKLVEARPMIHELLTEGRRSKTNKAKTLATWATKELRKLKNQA
#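 FRET biosensor (snurportin 1 IBB flanked by EYFP and cerulean), 50 nM, with compound 5 min, then 0.125 microM importin beta in PBS, 1 mM DTT, 0.02% Tween-20, 0.1% BSA. CFP/YFP ratio read after 45 min at room temperature; pre-read flags interference.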
# Numbers without * were called inactive; ? = inconclusive; nt = no result given. This is a subset (hit frequency here may not be typical).
SMILES,Rango release inh,miR-21 FLuc,GLA inh pH 4.5,Rango-impB inh
COc1ccccc1NC(=O)c1cc(N2C(=O)C3C4CCC(C4)C3C2=O)ccc1Cl (configuration not stated),-6%,-3%,nt,0.1%
O=C(Cn1ncc2c([nH]c3ccccc32)c1=O)NCCc1ccccc1,1%,0%,nt,4.0%
COC(=O)c1[nH]c(=O)c2ccccc2c1OCc1ccccc1,7%,-2%,6,1.8%
Cc1ccccc1NC(=O)CSc1nnc2ccc(-c3cccnc3)nn12,?,nt,nt,2.7%
Cc1cccc(-n2c(SCN3C(=O)c4ccccc4C3=O)nc3ccccc3c2=O)c1,nt,2%,-9,nt
CC(=O)c1ccc(O)c(CSC2=NCCS2)c1,0%,1%,-3,5.4%
NC(=O)c1ccccc1[N+](=O)[O-],0%,nt,nt,-0.7%
O=[N+]([O-])c1cccc(N(CC2CO2)S(=O)(=O)c2ccccc2)c1 (configuration not stated),-4%,0%,nt,-0.9%
CCOC(=O)C1CCCCN1Cc1ccccc1C(F)(F)F (configuration not stated),-4%,0%,1,-0.6%
COc1ccc(OC)c(NC(=O)CN(C)S(=O)(=O)c2ccc3nc(C)sc3c2)c1,-1%,-8%,-5,2.0%
Cc1cccc(C)c1Nc1nnc(SC(C)C(=O)Nc2c(C)n(C)n(-c3ccccc3)c2=O)s1 (configuration not stated),2%,-4%,-3,5.3%
CC(C)NC(=O)C1=NN(c2ccccc2)C(=O)CC1,?,3%,nt,-0.6%
O=C(COc1cc(Cl)c(Cl)cc1Cl)NCCN1CCOCC1,12%,-9%,5,-0.7%
CCOC(=O)CSc1nc2cc(S(=O)(=O)Nc3ccccc3OC)ccc2o1,-3%,0%,4,-0.4%
CC(C)(O)C#Cc1ccc(C(=O)NCCC(=O)O)s1,7%,1%,-4,-1.2%

# Compound profiles, as listed above:
# `CC(C)NC(=O)C1=NN(c2ccccc2)C(=O)CC1` is listed with Rango release inh: ?; miR-21 FLuc: 3%; GLA inh pH 4.5: nt; Rango-impB inh: -0.6%
# `CC(C)(O)C#Cc1ccc(C(=O)NCCC(=O)O)s1` is listed with Rango release inh: 7%; miR-21 FLuc: 1%; GLA inh pH 4.5: -4; Rango-impB inh: -1.2%

# (cont.)
SMILES,Rango release inh,miR-21 FLuc,GLA inh pH 4.5,Rango-impB inh
CCOC(=O)CC1C(=O)NCCN1S(=O)(=O)c1ccc(Cl)c(Cl)c1 (configuration not stated),2%,-3%,?,1.6%
CC(NC(=O)CCc1nnc(-c2ccccc2)o1)c1ccccc1 (configuration not stated),-15%,-30%,3,-0.8%
Cc1ccc(OCC(=O)NC2=NCCS2)cc1,-13%,-17%,4,1.0%
CC(C)(C)c1cc(N2CCOCC2)n2ncc(-c3ccc(Cl)cc3)c2n1,-7%,-23%,nt,-0.8%
COc1cc(C(=O)c2ccccc2C(=O)O)c(OC)c2c1CCCC2,-8%,nt,nt,-7.5%
Cc1ccc(C(=O)n2c(-c3ccccc3)cnc2SCC(=O)Nc2ccc(C)cc2C)cc1,12%,-42%,-4,3.7%
O=C1NN(c2ccc(Cl)c(Cl)c2)C(=O)/C1=C/c1ccc(-c2ccccc2C(=O)O)o1,10%,2%,nt,1.3%
Oc1ccc(COCc2ccccc2)c2cccnc12,7%,17%,10,0.4%
OCCC1CN(Cc2ccc3nonc3c2)CCN1Cc1ccsc1 (configuration not stated),-1%,-3%,-8,0.3%
CCC(C)[C@H](NC(=O)c1cn(CC)c2cc3c(cc2c1=O)OCO3)C(=O)NCCCn1ccnc1 (some centres not stated),1%,-7%,nt,-1.0%
O=C1CC(N(O)c2ccccc2)C(=O)N1c1ccc(Cl)c(Cl)c1 (configuration not stated),-5%,-9%,-1,3.6%
CCC(C)(C)n1nnnc1C(c1ccccn1)N1CCCCC1 (configuration not stated),-16%,-7%,3,0.0%
COc1ccc2c(-c3ccccc3)cc(=S)[nH]c2c1,6%,-19%,nt,0.8%
COc1cc(C)nc(N2CCC(C(=O)NCC3CCCO3)CC2)n1 (configuration not stated),0%,nt,nt,-0.9%
O=C(CNc1ccccc1N1CCCC1=O)Nc1cc(Cl)ccc1-n1cncn1,-3%,nt,nt,?
Cc1ccc(S(=O)(=O)N2CCC[C@H]2C(=O)OCC(=O)Nc2ccc3c(c2)OCO3)cc1,-13%,nt,nt,4.6%
C/C=C(\C)C(=O)NCCN1C2=NC[C@@H](Cc3ccccc3)N2C[C@@H]1Cc1ccc(OC)cc1,12%,nt,nt,-3.5%
CC(=O)N1CCc2cc(S(=O)(=O)CCC(=O)NCCc3ccc(Cl)cc3)ccc21,-8%,14%,nt,3.4%
CCCCn1c(N)c(N(CC)C(=O)c2ccc(Cl)c(Cl)c2)c(=O)[nH]c1=O,?,0%,nt,-0.8%
CC1(C)CC(C(=O)Nc2nccs2)CCO1 (configuration not stated),-9%,-5%,-1,5.3%
Cc1ccc(NC(=O)COC(=O)/C=C/c2c(C)nn(-c3ccc(F)cc3)c2Cl)cc1F,1%,-2%,-1,-1.0%
COC(=O)CC1COc2ccccc2N1C(=O)/C=C/c1ccccc1 (configuration not stated),5%,-18%,nt,0.2%
CC(=O)CSc1nnc2c3ccccc3nc(C(C)(C)C)n12,-9%,-13%,2,-0.3%
CCOC(=O)C1=C(CC)Nc2ccccc2N/C1=N\S(=O)(=O)c1ccccc1F,-18%,nt,nt,-3.1%
Cc1ccc(C(=O)N2CCC3(CC2)NCCc2[nH]cnc23)cc1,1%,-5%,nt,-1.7%
COc1ccc(Br)cc1/C=C(\C(=O)O)c1ccc(S(=O)(=O)N2CCCC2)s1,16%,nt,nt,2.0%
Cc1cc(C(=O)CN2CCN(CC(=O)Nc3ccc(F)cc3)CC2)c(C)n1C1CC1,-9%,nt,nt,0.5%
Cn1nc(NC(=O)CC(C)(C)CC(=O)O)c2ccccc21,18%,-8%,1,4.0%
O=C(CSc1n[nH]c(-c2cccs2)n1)N1CCN(S(=O)(=O)c2ccccc2)CC1,-10%,-8%,6,3.2%
Nn1c(Cc2cccc3ccccc23)nnc1SCc1ccccc1,10%,-8%,1,-4.1%

# An excerpt from above in order of the Rango-impB inh value, falling:
SMILES,Rango release inh,miR-21 FLuc,GLA inh pH 4.5,Rango-impB inh
COc1ccc(Br)cc1/C=C(\C(=O)O)c1ccc(S(=O)(=O)N2CCCC2)s1,16%,nt,nt,2.0%
COC(=O)CC1COc2ccccc2N1C(=O)/C=C/c1ccccc1 (configuration not stated),5%,-18%,nt,0.2%
CCOC(=O)C1=C(CC)Nc2ccccc2N/C1=N\S(=O)(=O)c1ccccc1F,-18%,nt,nt,-3.1%

# More results follow.
SMILES,Rango release inh,miR-21 FLuc,GLA inh pH 4.5,Rango-impB inh
CC(C)CCNC(=O)c1ccc(CSCc2cccc(F)c2)o1,-1%,-4%,6,-0.3%
Cc1ccc(S(=O)(=O)N2CCN(S(=O)(=O)N(C)C)CC2)c(C)c1,7%,13%,12,0.8%
CCOCCCNC(=O)C1CCN(S(=O)(=O)N2CC(C)CC(C)C2)CC1 (configuration not stated),3%,-1%,-9,-5.4%
COc1ccc(OCc2cc(C(=O)N(C)Cc3cc(C)no3)no2)c(Cl)c1,-7%,-60%,nt,0.1%
CCN1C(=O)/C(=C2/C=CC=CN2C)SC1=S,-13%,0%,-26,-3.2%
COc1cccc(C(=O)OCC(=O)Nc2ccc3c(c2)OCCO3)c1,6%,nt,nt,-1.9%
C/C(=N\NC(=O)c1nn(C)c(C)c1Br)c1ccc(NC(=O)c2ccoc2C)cc1,16%,-55%,-3,-2.5%
O=S(=O)(Oc1ccccc1N1CCCCC1)c1ccccc1,-6%,0%,-5,0.5%
Cc1c(C)n(CCc2ccccc2)c2ncnc(NCCCN(C)C)c12,-8%,-16%,nt,2.9%
CCOC(=O)C1CCN(C(=O)COC(=O)c2ccc3c(c2)C(=O)N(c2ccc(OCC)cc2)C3=O)CC1,4%,-1%,-2,-0.9%
CC(C)CCNC(=O)CN(CCCN1CCOCC1)C(=O)Cn1nnc(-c2ccc(F)cc2)n1,3%,1%,6,-0.1%
CCn1cc(S(=O)(=O)CC(=O)N2CCc3ccccc32)c2ccccc21,-1%,-4%,-12,-0.6%
Cc1ccc(CN2CCC(n3nccc3NC(=O)C3CCOC3)CC2)cc1 (configuration not stated),?,-2%,nt,-0.3%
COC(=O)c1nnc(-c2ccccc2)c(-c2ccccc2)n1,8%,1%,0,-2.2%
CCCCN(C(=O)CSCC(=O)Nc1ccc(OC)cc1)c1c(N)n(CC(C)C)c(=O)[nH]c1=O,-13%,nt,nt,?
Cc1ccc(S(=O)(=O)n2nc(OC(=O)c3ccccc3F)cc2N)cc1,5%,3%,nt,-3.5%
CC(C)(C)c1ccc(NC(=O)Nc2ccc3ccccc3n2)cc1,15%,-3%,3,-0.1%
COC(=O)N/N=C/c1ccccc1,17%,-27%,5,1.4%
Cc1ccc(NC(=O)NNC(=O)c2sccc2-n2cccc2)cc1,9%,2%,-11,-0.7%
C[C@]1(C(=O)O)Cc2oncc2C[C@@H]1C(=O)O,-17%,-7%,6,-2.3%
COc1cccc(/C=N/NC(=O)c2csc(-n3nc(C)cc3C(F)(F)F)n2)c1,-15%,-2%,5,-3.6%
O=C1NC(=O)C2(COC(c3cccnc3)OC2)S1 (configuration not stated),-6%,-1%,-8,0.8%
COCCCNc1ncnc2sc3c(c12)CCC(C)C3 (configuration not stated),5%,-22%,-3,0.1%
COC(=O)[C@@H](NC(=O)NC1CCCc2ccccc21)C(C)C (some centres not stated),0%,-3%,-22,-0.8%
CC(C)(C)OC(=O)C[C@H]1C/C=C\C[C@@H](CC(=O)N(CCO)Cc2ccccc2)C(=O)NC[C@H](c2ccccc2)OC1=O,-2%,nt,nt,-2.1%
COC(=O)c1c(NC(=O)CN2CCN(C(=O)c3ccco3)CC2)c2c(C)cccc2n1C,15%,2%,0,1.2%
CCOC(=O)C(=CN(CCc1ccccc1)CC(=O)OC)C(=O)OCC,-16%,-11%,-7,2.5%
Cc1ccc(OCC(=O)N2CCN(S(C)(=O)=O)CC2)cc1,0%,7%,10,-1.9%
O=C(Cn1nnc2ccccc21)NC1CCCCC1,-2%,-14%,6,-0.9%
COc1ccc(CNc2ccc3c(c2)ncn3C)cc1OC,-5%,6%,nt,-2.7%

# Some of these compounds in order of molecular weight, low to high.
SMILES,Rango release inh,miR-21 FLuc,GLA inh pH 4.5,Rango-impB inh
COC(=O)N/N=C/c1ccccc1,17%,-27%,5,1.4%
C[C@]1(C(=O)O)Cc2oncc2C[C@@H]1C(=O)O,-17%,-7%,6,-2.3%
CC(C)(C)c1ccc(NC(=O)Nc2ccc3ccccc3n2)cc1,15%,-3%,3,-0.1%

# Other results:
SMILES,Rango release inh,miR-21 FLuc,GLA inh pH 4.5,Rango-impB inh
O=C(CN1C(=O)NC2(CCCCCC2)C1=O)NCc1ccc(F)cc1,-12%,nt,nt,-0.7%
O=C(COC(=O)c1cccc(Cl)c1)NCCN1C(=O)CSC1=O,20%,-2%,9,-2.6%
CC(C)(C)c1ccc(C(=O)Nc2ccccc2NC(=O)c2ccco2)cc1,20%,-7%,-22,-1.4%
O=S(=O)(Nc1cccc(-n2cnnn2)c1)c1ccc(Cl)nc1,4%,-2%,nt,1.3%
COc1cccc(N/N=C/c2cccc(Br)c2O)c1,-12%,-53%,-14,?
Cc1ccc(C)c(SCC(=O)Nc2ccc(S(=O)(=O)Nc3ncccn3)cc2)c1,23%,-7%,-3,-1.8%
CCC(Sc1nc2n[nH]c(C)c2c(=N)n1-c1cc(Cl)ccc1C)C(=O)N1CCOCC1 (configuration not stated),-2%,-25%,-9,2.9%
CCCNC(=O)Cn1cnc([N+](=O)[O-])n1,0%,-9%,9,-1.9%
CCOC(=O)N1CCC(NC(=O)C2CCN(S(=O)(=O)N3CCC(C)CC3)CC2)CC1,-4%,-2%,-1,2.0%
COc1ccc(CNC(=O)C2CCN(C(=O)c3sccc3-n3cccc3)CC2)cc1,-3%,-2%,nt,0.2%
